Sfp inh: qHTS Assay for Inhibitors of Bacillus subtilis Sfp phosphopantetheinyl transferase (PPTase); 4'-phosphopantetheinyl transferase ffp (Bacillus subtilis), Q9F4F7; 310,000 tested, 3.5% active; Potency, µM, for inactives: max response, negative = inhibition, actives largely listed as inhibitors; Biochemical Sfp PPTase activity, qHTS; active means well fitted inhibition curve with a large enough effect; inconclusive means small, poorly fitted or top-dose-only effect, or another doubt; inactive means no such curve, though single readings can be large or run the other way;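 further: the enzyme is Sfp with the accession as filed and its product quenches rhodamine fluorescence; potency means the concentration at half of the fitted maximal effect; 0% = enzyme reaction without inhibitor and -100% = no enzyme wells; top concentration of the series not given in the record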
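Step 1, compound plus 15 nM Sfp-PPTase, 15 min, room temperature. Step 2, add rhodamine-CoA (5 uM) and BHQ-2-YbbR (12.5 uM). Step 3, read 525/598 nm fluorescence at 0 and 30 min.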
Menin MLL FP FL: qHTS Assay for Inhibitors Targeting the Menin-MLL Interaction in MLL Related Leukemias: Competition With Fluorescein Labeled MLL-derived Peptide; Fluorescence polarization, fluorescein-MLL peptide displacement from menin; FP activity change, % at 61.4 µM; 290,000 tested, under 10 active; inconclusive = falling polarisation curve, or a change in total fluorescence; inactive = total fluorescence flat and polarisation flat or rising; no compound was filed as active; the % refers to the polarisation; negative = inhibition;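 further: % of control where 0% means no effect; inhibitors lower the polarisation; unlabelled MLL peptide was the positive control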
PINK1 modulator: A Quantitative High throughput Screen to Identify Chemical Modulators of PINK1 Expression; Potency, µM (doses to about 76.6 µM), without a hit: at the top dose activation (PINK1 increase), hits mostly activators; PINK1 immunofluorescence, high-content cytometry, 24 h; 410,000 tested, 0.2% active; active = well fitted activation curve with a large enough effect; inconclusive = small, poorly fitted or top-dose-only effect; inactive = flat fitted curve, though single readings scatter; cell line not stated here;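 further: potency means the concentration at half of the fitted maximal effect; % of control where 0% means no effect; nearly all actives have a fitted effect of over 65% in size; a mitochondrial uncoupler was the plate control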
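Compound titrations (5 concentrations, 24 h) on a stable cell line; DMSO and CCCP controls. Endpoint: fixed-cell PINK1 immunofluorescence with mitochondrial, cell and nuclear markers, scanned by microplate cytometer.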
ClpP mod: qHTS Assay for Activators of ClpP; Potency, µM (titrated, usually from 57.5 µM), for inactives: at the highest dose activity change, negative = active; ATP-dependent Clp protease proteolytic subunit (Bacillus subtilis (strain 168)), P80244; purified B. subtilis ClpP, FRET peptide cleavage, 20 min; 340,000 tested, 1.9% active; active = well fitted falling curve with a large enough effect; inconclusive = small, poorly fitted or top-dose-only effect; inactive = no such curve, though single readings can be large or run the other way; further: potency means the concentration at half of the fitted maximal effect; the source files actives as falling curves though it sought activators and does not explain the sign; nearly all actives have a fitted effect of over 65% in size; many hits overshoot -100%
Target sequence (P80244 whole entry, looked up): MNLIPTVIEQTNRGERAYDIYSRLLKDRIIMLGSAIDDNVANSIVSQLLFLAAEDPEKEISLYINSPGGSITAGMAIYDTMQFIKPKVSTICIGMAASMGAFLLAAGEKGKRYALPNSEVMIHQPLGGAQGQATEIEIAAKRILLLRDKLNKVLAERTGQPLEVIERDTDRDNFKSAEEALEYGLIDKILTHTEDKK
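Buffer: 100 mM Tris/HCl pH8, 100 mM KCl, 0.05% low protease BSA, 2.5% glycerol, 0.01% Tween-20. ClpP 10 microg/mL final; 20 min RT; delta FRET normalized to ADEP and DMSO controls.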
TRPV1 PAM: HTS Assay for Compounds that Act as Potentiators of the Vanilloid Receptor 1. Transient receptor potential cation channel subfamily V member 1 (Homo sapiens), Q8NER1. TRPV1-expressing cells, Fluo-8 calcium influx, capsaicin EC20 potentiation; host cell line not named in the record; control for the full effect not named in the record. potentiation, % at 8.33 µM. 320,000 tested, 0.02% active. AID 540277, 2011; active means potentiation above 80%; inconclusive means 30% to 80%; inactive means below 30%; further: 0% is about no effect
Target sequence (Q8NER1 whole entry, looked up): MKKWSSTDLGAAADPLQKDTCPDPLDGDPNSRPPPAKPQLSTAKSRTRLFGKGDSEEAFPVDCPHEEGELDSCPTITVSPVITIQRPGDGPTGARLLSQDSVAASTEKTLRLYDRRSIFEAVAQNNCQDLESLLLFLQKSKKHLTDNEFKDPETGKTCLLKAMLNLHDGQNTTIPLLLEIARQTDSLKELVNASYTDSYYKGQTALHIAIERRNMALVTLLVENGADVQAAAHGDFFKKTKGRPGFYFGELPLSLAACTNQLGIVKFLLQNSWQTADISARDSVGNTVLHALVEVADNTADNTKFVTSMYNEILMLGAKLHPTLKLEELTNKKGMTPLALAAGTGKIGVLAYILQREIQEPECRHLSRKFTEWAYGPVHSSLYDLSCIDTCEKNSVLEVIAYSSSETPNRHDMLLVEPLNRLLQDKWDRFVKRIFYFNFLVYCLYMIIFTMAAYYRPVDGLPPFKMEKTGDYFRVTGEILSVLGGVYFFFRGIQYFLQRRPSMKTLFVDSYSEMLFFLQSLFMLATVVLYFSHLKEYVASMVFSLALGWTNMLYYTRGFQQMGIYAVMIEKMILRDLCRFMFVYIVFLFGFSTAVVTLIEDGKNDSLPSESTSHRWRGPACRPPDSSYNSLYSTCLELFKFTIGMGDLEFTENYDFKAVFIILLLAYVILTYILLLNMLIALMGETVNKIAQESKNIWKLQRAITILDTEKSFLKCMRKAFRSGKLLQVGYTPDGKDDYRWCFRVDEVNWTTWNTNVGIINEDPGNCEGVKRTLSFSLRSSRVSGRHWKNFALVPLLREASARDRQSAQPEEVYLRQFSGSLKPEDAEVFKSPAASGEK
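Cells expressing TRPV1 were dye-loaded with Fluo-8 and read kinetically: 10 s baseline, 3 min after compound (agonist portion), then 2 min after EC20 capsaicin (allosteric enhancer portion). Calcium-bound dye fluorescence at 480/520 nm.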
TRPML1 inh: qHTS for Inhibitors of the Human Mucolipin Transient Receptor Potential 1 (TRPML1). AID 624415, 2012. 390,000 tested, 0.02% active. Mucolipin-1 (Homo sapiens), Q9GZU1. activity change, negative = inhibition, % (concentration not given with the values). TRPML1-inducible cells, Ca2+ dye fluorescence, FDSS; active compounds read low; inhibition of EC80 agonist-evoked calcium signal; in the data active means activity change below about -50%; inconclusive means about -30% to -50%; inactive means above about -30%;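 further: stimulus is agonist 54-4 at its EC80 concentration; on the % scale 0 is the no-effect control and ±100 the full control effect; the text of the record puts the active cut at -80%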
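Tet-induced TRPML1-DL cells loaded with Ca8 no-wash calcium dye were read kinetically on FDSS. Compound addition was followed by EC80 agonist 54-4 (4 uM final); inhibition was read over 110 s.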
TRPML1 ag: qHTS for Agonists of the Human Mucolipin Transient Receptor Potential 1 (TRPML1); Mucolipin-1 (Homo sapiens), Q9GZU1; TRPML1-expressing cells, Ca2+ dye fluorescence, FDSS; host cell line not named in the record; reference of the full effect not given here; activation, % (concentration not given with the values); 410,000 tested, 0.12% active; AID 624414, 2012; in the data active = activation above about 50%; inconclusive = about 30% to 50%; inactive = below about 30%; further: 0% is about no effect; the text of the record puts the active cut at 80%
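Cells: TRPML1-DL, 1X Tet inducer, ~16 h at 37 degrees C/5% CO2. Dye: ABD Ca8 no-wash + quencher, 45-90 min RT. Read: 10 s baseline, compound add, 110 s agonist phase; 54-4 EC80 (4uM final), 110 s antagonist phase.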
An asterisk follows results filed as active; u = inconclusive; x = no result given; [ ] = dose if it differs, or a comment. Compounds were not picked by outcome, and some 4.4% of all compounds hit somewhere here.

SMILES	Sfp inh	Menin MLL FP FL	PINK1 modulator	ClpP mod	TRPV1 PAM	TRPML1 inh	TRPML1 ag
S=c1[nH]nc(-c2ccc3ccccc3n2)n1-c1ccc2ncccc2c1	u	x	0.0%	-1.0%	10	54	1.8
CN1CCCN(S(=O)(=O)c2ccc(Cl)c(Cl)c2)CC1	16%	-1.3	0.1%	1.6%	-3	8	-0.2
CNC(=O)OC1CC2CC1[C@H]1CCCCN1C2=O (stereo not given in full)	x	x	0.7%	0.4%	x	x	-0.1
CCOC(=O)C1(CC2CC2)CCN(S(=O)(=O)C[C@]23CC[C@H](CC2=O)C3(C)C)CC1	-5%	-1.0	1.0%	2.3%	-13	6	-0.7
CCN(CCCNC(=O)CN1C(=O)COc2ccc(S(=O)(=O)N3CCC(C)CC3)cc21)Cc1ccccc1	3%	-1.7	-0.3%	-10%	5	7	-0.1
Cc1ccc(NC(=O)c2cc(-c3cccs3)nc3ccccc23)c(C)c1	x	x	6.4%	3.8%	x	10	0.6
COC(=O)C1CN(C(=O)COc2ccccc2)c2ccccc2O1 (stereo not given)	8%	1.3	-0.1%	-0.1%	3	8	-0.8
NS(=O)(=O)c1ccc(NC(=S)N2CCN(Cc3ccc4c(c3)OCO4)CC2)cc1	22µM*	-5.0	0.5%	-0.7%	26	2	0.5
Cc1cc(O)c(N)c(C)c1Cl	56µM*	-3.4	-0.2%	x	8	7	0.1
CCC(=O)C1=C(c2cccc(OC)c2)N(C(=O)CC)n2c(nnc2C2CCCCC2)S1	x	x	4.6%	-1.0%	x	-7	2.3
CC(=O)c1c(C)[nH]c(C(=O)OCc2cccc(Cl)c2)c1C	-6%	-6.3	3.6%	-7.5%	22	-6	0.9
Cc1ccc(CN2CCC(NC(=O)c3ccccc3)CC2)cc1	1%	-2.7	0.2%	x	0	25	-0.2
O=C(Nc1sc2c(c1C(=O)NCc1ccco1)CCCC2)c1ccc2c(c1)OCO2	45µM*	3.4	18%[38.3 µM]	352%	22	-3	0.6
CCOC(=O)c1ccc(NS(=O)(=O)c2cc(-c3onc(C)c3C)ccc2C)cc1	x	x	0.0%	-2.1%	x	24	3.7
CCOc1ccc(CCNC(=O)Cn2ncc3c(=O)oc4ccc(C)cc4c32)cc1	x	x	0.3%	-1.1%	x	15	-0.6
COC(=O)c1ccc(Cn2cc([N+](=O)[O-])cn2)cc1	18%	-1.0	0.4%	x	11	9	1.3
COc1ccc(N2CCN(Cc3nc4c(c(=O)n(C)c(=O)n4C)n3CCc3ccccc3)CC2)cc1	-5%	0.8	-1.1%	-1.9%	29	0	-0.3
CC(C)C[C@@H](CN1CCC[C@H]1CN1C(=O)C(=O)NC[C@@H]1Cc1ccccc1)N1C[C@H](Cc2ccc(O)cc2)N(CC2CCCCC2)C(=O)C1=O	x	x	3.2%	1.0%	x	x	-0.3
CC1CCCN(CCCNC(=O)C2CCC(CNS(=O)(=O)c3cccc4nsnc34)CC2)C1 (stereo not given)	24%	0.6	0.4%	-0.6%	-1	14	-0.5
CC(=O)N1Cc2ccccc2CC1C(=O)NCc1ccccc1F (stereo not given)	16%	3.5	-2.1%	x	-9	4	-0.7
C=CCn1c(=O)c2ccccc2n2c(=S)[nH]nc12	-27%	-9.4	-2.8%	3.8%	3	25	3.3
Cc1nc(N2CCCC2)c2c(C(=O)Nc3ccc(C)c(Cl)c3)c(C)oc2n1	x	x	18%	1.1%	x	8	0.7
CCN(CC)c1ccc(/C=N/NC(=O)c2cc(C)nc3ccccc23)cc1	2%	3.5	7.5%	-0.7%	1	11	1.7
COc1ccc(NC(=O)NC(C)c2c(-n3cccc3)sc3c2CCN(C)C3)c(OC)c1 (stereo not given)	x	x	-0.8%	-3.7%	x	-26	1.2
O=C(NC1CC1)C1=C[C@@H](c2csc3ccccc23)C[C@@H](OCc2ccc(CO)cc2)O1	-7%	-0.7	1.4%	-3.6%	2	19	-0.3
CC(=O)Nc1ccc(O)cc1[N+](=O)[O-]	14%	3.0	1.2%	x	-18	12	0.4
CC(C)CC[C@@H](O)[C@](C)(O)C1CC[C@@]2(O)C3=CC(=O)[C@@H]4C[C@@H](O)[C@@H](O)C[C@]4(C)C3CC[C@]12C (stereo not given in full)	x	x	0.4%	-1.5%	x	7	-0.3
COC(=O)CCCC[C@@H]1O[C@H](CCc2ccccc2)Cc2[nH][nH]c(=O)c21	x	x	1.3%	2.5%	x	x	-0.7
OC(CNc1nc(C(F)(F)F)nc2ccccc12)c1ccccc1 (stereo not given)	10%	x	0.0%	x	-8	0	1.3
CC(=O)C1=C(C)N(c2ccccc2)C(=O)C1(NS(=O)(=O)c1ccc(N)cc1)C(F)(F)F (stereo not given)	21%	-2.0	0.3%	x	2	-10	0.6
CCN1CCN(c2oc(COc3ccc(-c4ccccc4)cc3)nc2C#N)CC1	u	-2.5	0.5%	0.2%	4	-12	-0.7
CCOC(=O)C(Cc1c[nH]c2ccccc12)NC(=O)c1ccco1 (stereo not given)	-1%	0.5	11%	1.9%	-9	-1	0.9
COc1ccc(C(=O)N/N=C(\c2ccccc2)c2ccccn2)cc1	-13%	9.0	2.9%	2.1%	-17	-11	0.9
Cc1cc2nc(CN(C)Cc3c(C(=O)N(C)C)nc4ccc(Cl)cn34)[nH]c2cc1C	8%	-0.7	3.1%	x	12	-5	-0.5
COc1ccc(OC)c(S(=O)(=O)N2CCCC(C(=O)NCCc3ccccc3)C2)c1 (stereo not given)	5%	x	4.3%	1.0%	10	-2	0.4
COC(=O)C1=C(C)N(C)C(=O)NC1c1cc(Cl)c(O)c(OC)c1 (stereo not given)	14%	1.7	x	0.2%	2	0	0.3
CC(=O)c1ccc(S(=O)(=O)NCc2cccnc2)cc1	9%	-0.1	0.7%	0.8%	7	-6	0.1
Cc1ccnc(NC(=O)Cn2c(=O)oc3cc(S(=O)(=O)N4CCCC4)ccc32)c1	2%	-1.0	-0.3%	1.4%	26	13	-0.5
CCOC(=O)c1oc2c(O)c(O)ccc2c(=O)c1-c1nncn1-c1ccccc1	u	2.5	-2.4%	22µM*	5	-8	-0.3
Cc1ccc2cccc(NC(=O)c3ccc(-c4cccc([N+](=O)[O-])c4)o3)c2n1	x	x	2.9%	-2.4%	x	3	1.7

Entries above that have a furan ring, fused or not, in the order listed:
SMILES	Sfp inh	Menin MLL FP FL	PINK1 modulator	ClpP mod	TRPV1 PAM	TRPML1 inh	TRPML1 ag
O=C(Nc1sc2c(c1C(=O)NCc1ccco1)CCCC2)c1ccc2c(c1)OCO2	45µM*	3.4	18%[38.3 µM]	352%	22	-3	0.6
Cc1nc(N2CCCC2)c2c(C(=O)Nc3ccc(C)c(Cl)c3)c(C)oc2n1	x	x	18%	1.1%	x	8	0.7
CCOC(=O)C(Cc1c[nH]c2ccccc12)NC(=O)c1ccco1 (stereo not given)	-1%	0.5	11%	1.9%	-9	-1	0.9
Cc1ccc2cccc(NC(=O)c3ccc(-c4cccc([N+](=O)[O-])c4)o3)c2n1	x	x	2.9%	-2.4%	x	3	1.7

Remaining list, next part.
SMILES	Sfp inh	Menin MLL FP FL	PINK1 modulator	ClpP mod	TRPV1 PAM	TRPML1 inh	TRPML1 ag
COc1ccc2nc(N3C(=O)C(O)=C(C(=O)c4ccco4)C3c3ccco3)sc2c1 (stereo not given)	x	x	-1.1%	x	x	31	9.6
COc1ccc([N+](=O)[O-])cc1N(CC(=O)N1CCCCC1)S(C)(=O)=O	25%	0.7	-1.3%	x	3	-17	1.7
CN(CCN1CCOCC1)Cc1nc(-c2cccs2)no1	5%	1.0	-0.3%	-0.3%	4	13	-0.3
CCOC(=O)c1ccc(S(=O)(=O)N2CCC(C(=O)NCC3CCCCC3)CC2)cc1	x	x	8.2%	1.6%	-5	11	2.5
CCCc1cc(=O)oc2cc(OCC(=O)Nc3ccc4c(c3)OCCO4)ccc12	6%	0.3	1.7%	1.3%	-1	-3	-0.2
CCCCC(CC)C(=O)Nc1ccc(Cl)cn1 (stereo not given)	7%	-0.3	0.1%	1.7%	9	-10	0.7
COc1ccc(C2C(C#N)=C(N)N(N(C)C)C3=C2C(=O)CCC3)cc1 (stereo not given)	-2%	2.4	-1.0%	-1.3%	12	-3	0.9
CC(C)(C)C(=O)COC(=O)c1cc(-c2ccncc2)nc2ccccc12	-8%	-0.3	2.6%	x	-9	54	2.7
O=C(c1ccco1)N1N=C(c2ccc(Cl)cc2)CC1c1ccco1 (stereo not given)	u	-2.3	2.0%	5.7%	-14	38	5.4
O=C(Nc1ccccn1)c1cccc(S(=O)(=O)N2CCOCC2)c1	11%	0.3	-3.0%	-4.4%	9	80	-0.2
Cc1ccccc1OCC(=O)Nc1ccc(S(=O)(=O)Nc2onc(C)c2C)cc1	0%	1.7	-1.8%	x	2	-3	0.7
O=C(c1cccnc1)c1cccnc1	-9%	2.8	-1.8%	4.1%	-3	-3	-0.2
COc1cc(C(=O)NC(=S)Nc2nc(-c3ccc(F)cc3)cs2)cc(OC)c1OC	9%	x	1.1%	1.4%	0	1	-0.6
CCOc1ccc(S(=O)(=O)N2CCC(c3ccccc3)CC2)cc1C(=O)O	14%	-0.3	-0.5%	1.5%	6	-17	0.4
COCN(C#N)c1nc(OC)nc(OC)n1	-4%	0.2	1.6%[38.3 µM]	0.6%	-18	32	0.4
CCOc1ccc(NC(=O)CN2C(=O)NC(CCc3ccccc3)C2=O)cc1OCC (stereo not given)	x	x	u	-2.0%	x	-3	-0.2
O=C(Nc1cccc(S(=O)(=O)N2CCCC2)c1)c1ccc2ccccc2n1	-1%	4.0	0.0%	x	-13	63	1.8
Cc1ccc(Cn2ccc(NC(=O)c3cc(-c4ccc(Cl)c(Cl)c4)on3)n2)cc1	x	x	-0.1%	-5.6%	x	-3	-0.8
CCC1(c2ccccc2)NC(=O)N(CC(=O)N2CCc3ccccc32)C1=O (stereo not given)	x	x	3.0%	19%	x	-9	1.8
